Bioassay records: PubChem BioAssay, National Center for Advancing Translational Sciences (NCATS)
D2 ag: agonists of human D2 dopamine receptor (beta-arrestin) | P14416 | DiscoveRx PathHunter D2 beta-arrestin, luminescence, 90 min; 100% = 57 uM dopamine signal | activation, % (concentration not given with the values) | 360,000 tested, 0.084% active; in the data active = activation above about 40%; inconclusive = about 15% to 40%; inactive = below about 15%; also: compound concentration not given in the record; the text of the record calls up to 30% inactive
Target sequence (P14416 whole entry, looked up): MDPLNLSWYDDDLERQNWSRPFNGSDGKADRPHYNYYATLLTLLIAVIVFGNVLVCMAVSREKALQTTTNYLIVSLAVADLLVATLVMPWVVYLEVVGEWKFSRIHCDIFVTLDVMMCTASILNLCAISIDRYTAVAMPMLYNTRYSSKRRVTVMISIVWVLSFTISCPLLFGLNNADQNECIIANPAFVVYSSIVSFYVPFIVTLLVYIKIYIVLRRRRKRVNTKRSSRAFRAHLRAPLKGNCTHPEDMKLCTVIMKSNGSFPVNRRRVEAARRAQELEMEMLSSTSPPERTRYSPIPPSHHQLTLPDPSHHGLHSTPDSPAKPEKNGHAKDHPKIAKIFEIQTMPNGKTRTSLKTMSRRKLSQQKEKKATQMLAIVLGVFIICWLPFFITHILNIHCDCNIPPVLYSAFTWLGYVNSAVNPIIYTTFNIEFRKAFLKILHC
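DiscoveRx PathHunter D2 beta-arrestin cells (2,100/well) attached overnight, then compound-stimulated 90 min at 37 C in HBSS/10 mM HEPES/0.1% Tween-20 buffer; beta-galactosidase complementation read by luminescence after 1 h at ambient temperature. Dopamine 57 uM final (EC100) as control.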
Six1-Eya2 inh: blocks human Six1 binding to Eya2; 360,000 tested, 0.56% active; Q15475+O00167; AlphaScreen GST-Six1/His-Eya2 binding, biochemical; active compounds read low; control for the full effect not named in the record; activity change, % (concentration not given with the values); in the data active = activity change below about -65%; inconclusive = about -30% to -65%; inactive = above about -30%; also: % is scaled to controls: 0 for no effect and ±100 for the full control effect
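Compounds are tested against tagged Six1 and Eya2 proteins bridged by glutathione donor and nickel acceptor beads; after a one-hour incubation at 37 °C without light, AlphaScreen emission is recorded.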
D2 potentiator: positive allosteric modulators of human D2 dopamine receptor | AID 624464 | potentiation, % (concentration not given with the values) | DiscoveRx D2 beta-arrestin cells, luminescence, 90 min; 100% = 57 uM dopamine signal | 360,000 tested, 0.23% active; active = potentiation of 50% or more; inconclusive = 30% to 50%; inactive = 30% or less;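 also: compound concentration not given in the record; tested on top of an EC20 dose of dopamine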
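D2 cells co-treated with compound plus 50 nM dopamine (EC20) for 90 min at 37 deg C to detect potentiation. Beta-arrestin recruitment was read as enzyme-fragment luminescence after 1 h at ambient temperature. Full response was set by 57 uM dopamine.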
TRPML1 blocker: blocks the human TRPML1 channel | activity change, negative = inhibition, % (no concentration beside the values) | 390,000 tested, 0.02% active | AID 624415 | TRPML1-inducible cells, Ca2+ dye fluorescence, FDSS; active compounds read low; inhibition of EC80 agonist-evoked calcium signal | Q9GZU1; in the data active means activity change below about -50%; inconclusive means about -30% to -50%; inactive means above about -30%;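 also: stimulus is agonist 54-4 at its EC80 concentration; % is scaled to controls: 0 for no effect and ±100 for the full control effect; compound concentration not given in the record; the text of the record puts the active cut at -80%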
Target sequence (Q9GZU1 whole entry, looked up): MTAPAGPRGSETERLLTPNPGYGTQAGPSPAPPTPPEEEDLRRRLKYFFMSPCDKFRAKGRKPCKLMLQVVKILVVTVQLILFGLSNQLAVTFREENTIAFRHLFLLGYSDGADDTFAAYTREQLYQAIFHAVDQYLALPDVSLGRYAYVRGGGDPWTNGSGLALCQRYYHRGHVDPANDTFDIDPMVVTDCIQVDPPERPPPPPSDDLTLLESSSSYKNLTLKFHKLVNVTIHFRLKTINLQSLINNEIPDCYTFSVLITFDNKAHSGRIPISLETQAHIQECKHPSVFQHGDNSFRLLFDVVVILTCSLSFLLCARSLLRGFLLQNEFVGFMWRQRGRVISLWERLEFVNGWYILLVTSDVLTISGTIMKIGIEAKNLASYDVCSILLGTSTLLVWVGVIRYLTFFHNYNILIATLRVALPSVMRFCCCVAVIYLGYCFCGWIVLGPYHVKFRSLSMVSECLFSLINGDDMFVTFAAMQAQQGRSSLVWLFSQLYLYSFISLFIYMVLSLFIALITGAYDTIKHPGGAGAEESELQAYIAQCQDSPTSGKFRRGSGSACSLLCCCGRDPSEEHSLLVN
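TRPML1-DL cells, Tet-induced overnight (~16 h, 37 °C) at 1,500 cells/well, were loaded with Ca8 no-wash dye plus quencher for 45-90 min at room temperature. Compounds were pinned during FDSS kinetic reading; agonist 54-4 at EC80 (4 uM final) then added.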
TRPML1 agonist: activates the human TRPML1 channel | TRPML1-expressing cells, Ca2+ dye fluorescence, FDSS; host cell line not named in the record; reference of the full effect not given here | 410,000 tested, 0.12% active | activation, % (concentration not given with the values) | Q9GZU1; in the data active = activation above about 50%; inconclusive = about 30% to 50%; inactive = below about 30%; also: 0% is about no effect; the text of the record puts the active cut at 80%
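Agonist activity was taken from a 110 s kinetic Ca2+ dye read on the FDSS after pinning compounds onto TRPML1-DL cells. The cells were seeded at 1,500/well with Tet inducer, incubated about 16 h, then dye-loaded at room temperature.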
PINK1 expr mod: changes PINK1 expression. PINK1 immunofluorescence, high-content cytometry, 24 h. Potency, µM (series often up to 76.6 µM), for inactives: at the top dose activation (PINK1 increase), actives largely listed as activators. 410,000 tested, 0.2% active. AID 624263; active = well fitted activation curve with a large enough effect; inconclusive = small, poorly fitted or top-dose-only effect; inactive = flat fitted curve, though single readings scatter; cell line not stated here;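 also: potency is read from the fitted curve at half-maximal effect; % of control where 0% means no effect; nearly all actives have a fitted effect of over 65% in size; a mitochondrial uncoupler was the plate control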
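Readout is PINK1 immunofluorescence, quantified alongside mitochondrial, cell and nuclear markers by laser-scanning microplate cytometry. Cells from a stable line were exposed to compound titrations (5 concentrations) for 24 hours, with CCCP controls.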
* = called active by the depositor; u = inconclusive; x = no result given; [ ] = remark or other dose.

Each structure is followed by: D2 ag	Six1-Eya2 inh	D2 potentiator	TRPML1 blocker	TRPML1 agonist	PINK1 expr mod
> Cc1nnc(NC(=O)C2CC(=O)N(Cc3ccccc3)C2)s1 (stereo unspecified)
→ 2.3	3	-6	15	-0.2	1.6%
> CCOC(=O)N1CCN(Cc2nc3cc(NC(=O)C(C)C)ccc3n2CC)CC1
→ 3.1	10	-5	14	-1.2	7.2%
> Nc1ccc(S(=O)(=O)c2ccc(N)cc2)cc1
→ -5.0	0	-2	17	0.0	0.6%
> COc1ccc(C(=O)NCCn2cc(SCc3ccc(C(F)(F)F)cc3)c3ccccc32)cc1OC
→ x	x	x	15	0.5	3.8%
> CCn1cnc2c1c(=O)n(Cc1ccc(C(=O)OC)cc1)c(=O)n2Cc1ccccc1
→ 4.3	-2	5	-10	1.2	2.9%
> Cc1ccccc1CNC(=O)c1ccc2nc(SCc3ccc(F)cc3)n(C)c2c1
→ x	x	x	15	1.2	-1.0%
> CCCOc1ccc(C(=O)NNC(=O)c2cccc(S(=O)(=O)N3CCN(C(C)=O)CC3)c2)cc1OC
→ -3.6	-1	13	9	-0.1	4.0%
> COc1ccc(N2CCN(C(c3cc4cc(C)ccc4[nH]c3=O)c3nnnn3Cc3ccccc3)CC2)cc1 (stereo unspecified)
→ -0.9	u	-6	-5	0.6	-1.9%
> COc1ccc(S(=O)(=O)N2CCCCC2)cc1NC(=O)CCNC(=O)c1ccc(Cl)cc1
→ -2.0	2	-25	0	-0.1	1.8%
> COc1ccc2sc(N(CCCN(C)C)C(=O)c3ccc(S(=O)(=O)N4CCCc5ccccc54)cc3)nc2c1
→ -6.9	u	-37	2	0.6	-2.5%
> COc1cc2nc(CN(CCC(C)C)Cc3nc4cc(OC)c(OC)cc4c(=O)[nH]3)[nH]c(=O)c2cc1OC
→ 3.3	-2	2	-3	-0.5	2.2%
> CSc1nccc(NC(=O)c2cccc(Br)c2)n1
→ -8.2	10	-3	-21	1.9	2.0%
> O=C(CN(CC1CCCO1)C(=O)CCC(=O)Nc1ccccn1)NCc1ccccc1 (stereo unspecified)
→ -2.3	0	-5	-1	-0.3	-0.7%
> CN(Cc1ccccc1)c1oc(COc2ccccc2F)nc1C#N
→ -1.0	u	4	19	2.3	0.1%
> COc1ccc(S(=O)(=O)N(C)C)cc1NCC(=O)Nc1cccc2ccccc12
→ -4.6	4	-7	-1	0.8	0.0%
> COc1ccc(Cl)cc1NC(=O)CCCn1c(C)c2cnn(-c3ccccc3)c(=O)c2c1C
→ x	x	x	2	0.4	0.8%
> Cc1ccc(C(=O)Nc2ccon2)cc1S(=O)(=O)N1CCOCC1
→ -0.5	-16	4	10	-0.6	0.5%[38.3 µM]
> C=CCc1cccc2cc(C(=O)Nc3ccccc3C(=O)O)c(=O)oc12
→ 5.2	-23	22	0	2.8	-2.0%
> Cc1ccccc1OCCn1c(C)nc2ccccc21
→ 2.0	3	-4	-6	0.3	0.6%
> Cc1cc(C)cc(OCc2ccc(C(=O)O)o2)c1
→ -2.1	6	-4	14	-0.9	1.6%[38.3 µM]
> CCOc1cc(C(=O)Nc2ccccc2N2CCOCC2)ccc1OCC(=O)N1CCOCC1
→ -4.5	0	-8	5	-0.6	0.6%
> CCN(CC)CC(=O)Nc1c(C)cc(C(C)(C)C)cc1C
→ 0.0	6	1	-18	0.1	1.6%
> O=c1oc(-c2ccc(O)c(O)c2)cc2cccc(O)c12
→ 5.6	-1	-14	x	x	1.6%
> COc1cc2nc(C3CCC3)n(NC(=O)C3CCC3)c(=O)c2cc1OC
→ -1.2	-1	-14	49	0.6	-1.3%
> O=C(c1ccc2c(c1)OCCO2)C1CCN(S(=O)(=O)c2ccccc2F)CC1
→ -2.7	0	-14	9	1.5	2.9%[38.3 µM]
> O=c1[nH]c(NCCO)nc2ncn(Cc3ccccc3)c12
→ -3.2	9	-12	0	-0.2	-1.2%
> COc1cc(C(=O)ON=C2C=C(C)C(=O)C(C)=C2)cc(OC)c1OC
→ 15	6	64*	14	-0.1	24%
> CCc1c(N)nc(N)nc1Nc1ccccc1Cl
→ -2.2	-4	-6	2	0.3	-0.2%
> CCCCN(C)Cc1c(C)[nH]c2ccc(OCC)cc2c1=O
→ -2.6	4	-6	-5	-0.8	0.4%
> CC(C(=O)N1CCc2ccccc21)n1cccc1 (stereo unspecified)
→ -3.0	-15	-3	10	-0.8	-3.5%

Pulled by structure from above:
Each structure is followed by: D2 ag	Six1-Eya2 inh	D2 potentiator	TRPML1 blocker	TRPML1 agonist	PINK1 expr mod
> CN(Cc1ccccc1)c1oc(COc2ccccc2F)nc1C#N
→ -1.0	u	4	19	2.3	0.1%
> COc1ccc(N2CCN(C(c3cc4cc(C)ccc4[nH]c3=O)c3nnnn3Cc3ccccc3)CC2)cc1 (stereo unspecified)
→ -0.9	u	-6	-5	0.6	-1.9%
> O=c1oc(-c2ccc(O)c(O)c2)cc2cccc(O)c12
→ 5.6	-1	-14	x	x	1.6%

Among those listed so far, 4 contain fluorine:
Each structure is followed by: D2 ag	Six1-Eya2 inh	D2 potentiator	TRPML1 blocker	TRPML1 agonist	PINK1 expr mod
> COc1ccc(C(=O)NCCn2cc(SCc3ccc(C(F)(F)F)cc3)c3ccccc32)cc1OC
→ x	x	x	15	0.5	3.8%
> Cc1ccccc1CNC(=O)c1ccc2nc(SCc3ccc(F)cc3)n(C)c2c1
→ x	x	x	15	1.2	-1.0%
> CN(Cc1ccccc1)c1oc(COc2ccccc2F)nc1C#N
→ -1.0	u	4	19	2.3	0.1%
> O=C(c1ccc2c(c1)OCCO2)C1CCN(S(=O)(=O)c2ccccc2F)CC1
→ -2.7	0	-14	9	1.5	2.9%[38.3 µM]

Further entries:
Each structure is followed by: D2 ag	Six1-Eya2 inh	D2 potentiator	TRPML1 blocker	TRPML1 agonist	PINK1 expr mod
> C/C(=N\NC(=S)NC(C)C)c1cccc([N+](=O)[O-])c1
→ 0.1	-22	-20	20	-0.8	2.8%
> CC(C)Cc1nnc(NC(=O)CCC(=O)N2CCN(c3ccccc3F)CC2)s1
→ -0.8	3	-4	-9	-1.5	-0.4%
> Cc1ccc2cc3c(N)nn(C(=O)c4cccc(F)c4)c3nc2c1
→ x	x	x	-2	-0.1	-0.9%
> COc1ccc(/C(C)=N/N2C(=O)c3ccccc3NC2c2ccc(O)c(OC)c2)cc1 (stereo unspecified)
→ -1.7	14	1	52	0.6	0.3%
> Cc1ccc2c(c1)CO[C@@]21O[C@H](CCO)C[C@H](O)[C@H]1O
→ -3.4	3	0	1	-0.2	-1.5%
> Cc1cc(-c2nnc3sc(C4CCCCC4)nn23)n[nH]1
→ -0.3	0	9	15	2.5	-2.5%
> CCOC(=O)c1c(C)[nH]c(C(=O)OCC(=O)c2ccc(OC)cc2OC)c1C
→ -3.7	-6	-56	3	1.6	2.4%
> COc1ccc(NC(=O)CSc2ccc3nnc(-c4cccnc4)n3n2)cc1OC
→ -1.4	2	-8	15	-0.3	1.8%
> CC(=O)Nc1ccc(NC(=O)CSc2nnnn2-c2ccc(F)cc2)cc1
→ 1.0	37	-7	5	-1.1	6.4%
> Cc1ccc(-c2cc(C(=O)NCCCn3ccnc3)c3cc(Br)ccc3n2)o1
→ 2.1	-21	-4	-8	0.5	-2.6%
> COC(=O)CS(=O)(=O)c1nnc([C@H](Cc2ccccc2)NC(=O)OC(C)(C)C)o1
→ -10	11	-55	8	1.8	-6.1%
> N#Cc1nc(Cc2cccc3ccccc23)oc1NCCN1CCCCC1
→ -3.0	-11	-16	-6	-0.6	1.7%[38.3 µM]
> CC(=O)c1ccc(N2CCN(S(=O)(=O)c3ccc4c(c3)NC(=O)CC(=O)N4)CC2)cc1
→ -0.4	1	-7	-8	-0.1	u
> COc1ccc(N2CCN(C3CC(=O)N(Cc4ccccc4)C3=O)CC2)cc1 (stereo unspecified)
→ 3.0	-2	-3	7	-0.2	1.1%
> C/C(=N\NC(=O)c1ccccc1)c1ccc(C)c([N+](=O)[O-])c1
→ -1.4	-3	-18	-10	-0.8	5.9%
> Cn1cc(C(=O)N/N=C/C(Br)=C\c2ccccc2)ccc1=O
→ -4.3	-6	-4	-12	0.8	23%
> Cc1ccc(C)c2nc(SCC(=O)NCc3cccs3)c(C#N)cc12
→ -1.0	-1	-6	-6	0.1	-2.7%[38.3 µM]
> O=C1CCCC2=C1C(c1ccncc1)c1c(nc(SCc3ccccc3Cl)[nH]c1=O)N2 (stereo unspecified)
→ 1.0	-24	1	0	1.5	1.8%
> Cn1c(-c2cc(Cl)ccc2O)nc2c1c(=O)[nH]c(=O)n2Cc1ccccc1
→ 5.5	u	13	-5	3.2	-0.9%
> COc1ccc(N2CCN(CC(=O)Nc3cc(C)cc(C)c3)CC2)cc1
→ -3.7	-20	-5	-8	2.1	0.4%
> COc1ccc(NC2CCCN(C(=O)CCN3CCCO3)C2)cc1 (stereo unspecified)
→ 3.2	-1	-1	6	-0.8	-0.4%
> Cc1ccc(NC(=O)C2CCN(S(=O)(=O)c3ccc4[nH]c(=O)ccc4c3)CC2)c(C)c1
→ -2.4	-11	-1	-15	0.0	25%

Some of these compounds in order of their number in TRPML1 blocker, rising.
molecule | TRPML1 blocker
N#Cc1nc(Cc2cccc3ccccc23)oc1NCCN1CCCCC1 | -6
Cc1ccc2cc3c(N)nn(C(=O)c4cccc(F)c4)c3nc2c1 | -2
C=CCc1cccc2cc(C(=O)Nc3ccccc3C(=O)O)c(=O)oc12 | 0
COc1ccc(Cl)cc1NC(=O)CCCn1c(C)c2cnn(-c3ccccc3)c(=O)c2c1C | 2
COC(=O)CS(=O)(=O)c1nnc([C@H](Cc2ccccc2)NC(=O)OC(C)(C)C)o1 | 8
O=C(c1ccc2c(c1)OCCO2)C1CCN(S(=O)(=O)c2ccccc2F)CC1 | 9
Cc1nnc(NC(=O)C2CC(=O)N(Cc3ccccc3)C2)s1 (stereo unspecified) | 15

Rows were taken by chance. Share with any hit: about 1%.
